# Source: PubChem
# KCNQ2 pot: KCNQ2 (rat) channel potentiation; CHO-K1 KCNQ2, FluxOR thallium flux fluorescence; stronger effect = higher value; 0.54% of 310,000 active; B-score at 10 µM;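 active = fluorescence ratio B-score at least 3 SD of library B-scores, with initial fluorescence B-score within 3 SD, cut at about 5.3 in these data; same plate scores as AID 2156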;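 also: B-score of peak minus minimum over baseline fluorescence ratio after K+ and Tl+ stimulus; positive B-score means potentiation of KCNQ2 with more thallium influx and brighter signal; only the inactives scoring about 0 or higher are listed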
# Target sequence (O88943 whole entry, looked up): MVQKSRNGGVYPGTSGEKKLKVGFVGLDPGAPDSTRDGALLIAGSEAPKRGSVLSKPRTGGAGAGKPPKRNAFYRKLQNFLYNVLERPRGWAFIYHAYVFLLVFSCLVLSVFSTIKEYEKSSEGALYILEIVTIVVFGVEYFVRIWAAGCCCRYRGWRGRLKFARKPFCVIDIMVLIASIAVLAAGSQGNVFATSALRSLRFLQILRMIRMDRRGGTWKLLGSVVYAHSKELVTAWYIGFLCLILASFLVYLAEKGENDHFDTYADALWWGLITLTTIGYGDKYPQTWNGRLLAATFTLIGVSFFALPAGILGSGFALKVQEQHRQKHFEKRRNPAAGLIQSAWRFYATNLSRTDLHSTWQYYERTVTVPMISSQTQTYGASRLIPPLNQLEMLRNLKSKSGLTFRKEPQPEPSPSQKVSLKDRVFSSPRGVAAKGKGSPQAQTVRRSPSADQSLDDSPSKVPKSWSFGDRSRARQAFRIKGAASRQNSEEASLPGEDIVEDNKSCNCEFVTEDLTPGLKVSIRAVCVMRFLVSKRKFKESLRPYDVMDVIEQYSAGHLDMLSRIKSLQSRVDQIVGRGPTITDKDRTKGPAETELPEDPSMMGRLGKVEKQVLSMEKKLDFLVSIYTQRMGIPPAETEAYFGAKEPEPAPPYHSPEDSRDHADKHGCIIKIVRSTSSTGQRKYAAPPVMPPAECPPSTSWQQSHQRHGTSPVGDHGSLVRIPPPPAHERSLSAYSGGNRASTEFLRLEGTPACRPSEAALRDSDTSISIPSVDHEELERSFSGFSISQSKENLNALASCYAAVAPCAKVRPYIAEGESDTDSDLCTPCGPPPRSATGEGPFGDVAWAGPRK
# KCNQ2 pot baseline: recorded beside KCNQ2 pot, whose call it bears; B-score; compound at 10 µM; measured here: initial fluorescence intensity artifact check;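 brightness before thallium and not channel activity; 0 = typical well and far values either way flag optical interference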
# * marks the source's active call; other numbers are inactive results; . = no result given. The list is partial (hit frequency here may not be typical).
# Under each structure: KCNQ2 pot, KCNQ2 pot baseline
O=C(Nc1ccccc1)c1cccc(NC(=O)c2ccco2)c1
  0.3, -0.02
CCCN1C(=O)COc2ccc(-c3n[nH]c(=O)c4ccccc34)cc21
  1.9, -0.48
O=C(COC(=O)C1=COCCO1)Nc1ccc(F)c(F)c1
  1.5, -0.75
Cc1ccc(S(=O)(=O)NCCC(=O)Nc2ccc(C)c(Cl)c2)cc1C
  1.4, -1.1
COc1cc(NC(=O)Cc2ccccc2)c(C(=O)O)cc1OC
  1.7, -0.4
O=C(CNC(=O)N1CC(=O)Nc2ccccc21)NCc1ccccc1Cl
  0.19, -0.52
CCn1c(C)nc2cc(C(=O)NNS(=O)(=O)c3ccc(C)c(C)c3)ccc21
  2.5, -0.03
CC1(C)CC(=O)C(C(c2ccco2)C2C(=O)CC(C)(C)CC2=O)C(=O)C1
  9.8*, -2.2*
COC(=O)Nc1nn(-c2ccc(C)cc2)c(=O)c(C#N)c1C
  0.56, 0.03
O=C(CN(c1ccccc1)S(=O)(=O)c1ccccc1)N1CCN(Cc2ccc3c(c2)OCO3)CC1
  0.73, -2
O=C(NCC1COc2ccccc2O1)C1CCCN(S(=O)(=O)c2cnc[nH]2)C1 (centres undefined)
  1.1, 0.83
OCC1(CO)COC(/C=C/c2ccccc2)=N1
  0.03, 0.84
Oc1ccc2nc(Cc3ccccc3)[nH]c2c1
  0.33, -1.5
NC(=S)c1cc2cc(Br)ccc2oc1=O
  0.03, 0.06
CSc1ccc(Cl)c(C(=O)NCCCn2ccnc2)c1
  1.4, 1.1
O=C(C1=C(O)C(=O)N(CCN2CCOCC2)C1c1cccc(Br)c1)c1cccs1 (centres undefined)
  1.4, 1.4
CCOc1ccc(OCc2ccc(C(=O)Nc3ccc(Cl)cn3)o2)cc1
  1.6, 1.7
Cc1ccc(/C=N/n2cnc3sc(-c4ccccc4)cc3c2=O)o1
  1, -2
Nn1c(SCC(=O)Nc2cc(S(=O)(=O)N3CCOCC3)ccc2Cl)nnc1-c1cccnc1
  0.53, -0.4
CCOC(=O)CCNC(=O)N1CCC(CCOc2ccccc2)(C(=O)OCC)CC1
  0.39, 0.1
S=C(NCCCn1ccnc1)NC1CCCCC1
  0.01, 0.9
CCOc1ccc(OCCn2c(SCC(=O)O)nc3ccccc32)cc1
  1.5, -0.02
CC(=O)c1ccccc1OCCOc1ncnc2sccc12
  1.3, 0.01
Cc1nc2nc(C)c(CCC(=O)N3CCN(c4ccccc4)CC3)c(C)n2n1
  0.41, 0.11
Cc1ccc(Cn2ccc(NC(=O)c3c(-c4ccccc4Cl)noc3C)n2)cc1
  0.31, 1.9
Cc1ccccc1CSCC(=O)NC(=O)NC(C)(C)C
  0.05, -0.24
Cc1cc(NC(=O)CSc2nc3ccccc3[nH]2)no1
  0.57, 1.1
O=C1C2C3CCC(C3)C2C(=O)N1Cc1ccccc1 (centres undefined)
  2.3, -0.93
Cc1ccc(/C=N/NC(=O)c2nnn(-c3nonc3N)c2-c2cccs2)cc1
  1.8, 0.57
CCc1nnc(NC(=O)CSc2nnc(COc3ccccc3)n2Cc2ccccc2)s1
  0.1, 0.3
C=CCON/C(CCC)=C1\C(=O)C(C(=O)OC)C(C)(C)CC1=NC (centres undefined)
  0.86, -1
COc1ccccc1NC(=O)CSc1nnnn1Cc1ccccc1
  1.7, 0.63
O=C(c1ccccc1)N1CCN(CC(O)COCC2CC=CCC2)CC1 (centres undefined)
  0.73, -2
COc1cccc(N(CC(=O)N/N=C(\C)c2cccs2)S(C)(=O)=O)c1
  0.58, -2
CCOC(=O)c1nc(N)c(C(=O)OCC)[nH]1
  0.66, -0.1
Cc1ccc(S(=O)(=O)N(C)CCCC(=O)Nc2ccc(C)cc2C)cc1
  6.2*, -0.31*
CCOC(=O)N1CCN(CC(=O)Nc2cc3c(cc2C(C)=O)OCO3)CC1
  2.5, -0.03
Cc1ccc(/C=N/NC(=O)c2nn(C)cc2Cl)cc1
  1.9, -1.4
Cc1cc(C)n(C/C=C/Cn2nc(C)cc2C)n1
  0.81, -0.56
O=C(NCCCc1ccccc1)c1ccc(Br)o1
  2.1, -1.6
O=C(COc1ccc(-c2nnco2)cc1)Nc1c(Cl)cccc1C(F)(F)F
  2.5, 0.01
CCC(NC(=O)OCc1ccccc1)C(=O)Oc1ccc2ccc(=O)oc2c1 (centres undefined)
  1.3, -0.56
CCC(C)(C)n1nnnc1C(c1ccccc1F)N1CCC(C(N)=O)CC1 (centres undefined)
  0.85, 0.43
O=C(N1CCOCC1)N1CCC(NC(=O)C23CC4CC(CC(C4)C2)C3)CC1
  1.1, -0.74
O=C(Nn1cnnc1)c1ccncc1
  0.85, 0.91
CCc1ccc(OCC(=O)Nc2ccncc2)c(Br)c1
  3.2, 0.3
O=C(Nc1ccc2c(c1)CCC2)c1cnccn1
  0.21, -0.54
Cc1nc([N+](=O)[O-])nn1C12CC3CC(CC(Cl)(C3)C1)C2
  1.1, 0.58
COc1ccc(COC(=O)C2=C(C)NC(=O)NC2c2ccc(O)cc2)cc1 (centres undefined)
  0.08, -1.5
COc1cc(O)c2c(=O)c(-c3ccc(O[C@@H]4O[C@H](CO)[C@@H](O)[C@H](O)[C@H]4O)cc3)coc2c1
  0.97, 0.7
Clc1ccc(Nc2ccc(Cl)nn2)cc1
  6.6*, 0.82*
Cc1ccc(NC(=O)c2ccc(Cl)c(N3C(=O)CCC3=O)c2)cc1
  0.68, -0.05
Cc1nn(-c2ccccc2)c(C)c1NC(=O)COC(=O)CCc1ccccc1
  1.2, 1.1
CN1CCN(C(=O)c2cc(COc3c(F)cccc3F)on2)CC1c1ccccc1 (centres undefined)
  4.4, -0.77
Cc1cccc(/C(N)=N/OC(=O)c2ccco2)c1
  0.81, 0.11
Cc1noc(C)c1S(=O)(=O)N1CCC(C(=O)NCCCN2CC(C)CC(C)C2)CC1 (centres undefined)
  0.08, 0.98
CC(C)NC(=O)c1ccccc1-c1ccccc1
  0.84, -0.75
Cc1n[nH]c(C)c1CCC(=O)N/N=C/C=C/c1ccccc1
  2.3, -1.4
C/C(=N\Nc1ccc(C(F)(F)F)cn1)c1ccncc1
  2, 0.9
COc1ccc(-n2c(=O)[nH]c3cc(C(=O)NCCc4ccccc4)ccc3c2=O)cc1OC
  2.7, 0.04

# Additional results:
# Under each structure: KCNQ2 pot, KCNQ2 pot baseline
CC(C)CNC(=O)c1cccc(C(=O)NCC(C)C)c1
  0.88, 1.8
Cc1ccc([N+](=O)[O-])cc1NC(=O)C(C)NS(=O)(=O)c1ccc(F)cc1 (centres undefined)
  0.05, -0.03
Cc1ccc2[nH]c(-c3ccccc3)c(CN3CCN(C)CC3)c(=O)c2c1
  0.53, 0.42
Nc1nonc1-n1nnc(C(=O)N/N=C/c2cccc(Cl)c2)c1CN1CCCC1
  0.97, 1.9
COc1ccc(C2SCC(=O)N2c2c(C)n(C)n(-c3ccccc3)c2=O)c(OC)c1 (centres undefined)
  0.4, 0.39
COc1ccc(CC2(CO)COc3ccccc3C2=O)cc1 (centres undefined)
  0.07, 2.1
Nc1cc(=O)[nH]c(SCC(=O)NCC2CCCO2)n1 (centres undefined)
  0.38, 0
Cc1c(NC(=S)NCc2ccc(F)cc2)cccc1[N+](=O)[O-]
  1, 0.29
Cc1ccc(S(=O)(=O)Nc2cccc(C(=O)NCCCN3CCOCC3)c2)cc1F
  1.8, 1.2
CCCCNC(=O)CS(=O)Cc1nc(-c2cccc(C)c2)oc1C (centres undefined)
  1.9, 0.26
O=C1N[C@@H](Cc2ccccc2)C(=O)N2[C@H]1C[C@]1(Br)c3ccccc3N(S(=O)(=O)c3ccccc3)[C@H]21
  0.36, -1.5
COc1ccc(-c2noc(CN(Cc3nccn3C)C(C)C)n2)cc1
  0.73, -0.09
COc1cc(C)c(CN2CCN(c3ncccn3)CC2)cc1C
  1.4, -0.43
N#CCCN(C(=O)COC(=O)c1ccc2c(c1)NC(=O)CS2)c1ccc2c(c1)OCCO2
  0.45, -1.7
Cc1ccnc(NC(=O)c2cc(F)c(F)cc2Cl)n1
  0.53, -0.54
COc1cc2nc3occc3c(OC)c2cc1OC
  1, -0.98
CC1(C)Cc2c(sc3nc4n(-c5ccccc5)cnn4c(=O)c23)CO1
  0.02, -0.03
CS(=O)(=O)N(Cc1ccc(Cl)cc1)c1ccc(C(=O)Nc2cccnc2)cc1
  0.02, -1.1
Cc1cccc(NC(=O)Cn2nnc(C(=O)NCc3ccco3)c2N)c1
  0.13, -0.35
Cc1ccccc1-c1noc(CNC(=O)COc2ccccc2)n1
  0.31, 0.02
COc1ccc(-c2csc(NC(=O)c3ccc(S(C)(=O)=O)cc3)n2)cc1
  0.05, 0.35
CCn1nc(C(=O)OCC(=O)Nc2nc(-c3ccc(OC)cc3)cs2)c2ccccc2c1=O
  0.06, -2.2
COc1ccc2c(c1)CC[C@@H]1[C@@H]2CC[C@]2(C)[C@@H](C(C)=O)C[C@@H]12
  0.07, -0.1
CN(CC(O)CN1CCOCC1)S(=O)(=O)O (centres undefined)
  1.3, .
COc1ccc(Cc2nnc(NC(=O)Nc3cccc(OC)c3)s2)cc1
  1, 0.5
Cc1ccc(Nc2nnc(SCC(=O)NCCN3C(=O)CSC3=O)s2)cc1
  2.2, -1.5
Cc1ccc(N(C(=O)c2csnn2)C(C(=O)NC2CCCCC2)c2cccnc2)c(C)c1 (centres undefined)
  0.35, -0.13
Cc1cccc(CSC2=NN3CCCC(=O)N=C3S2)c1
  1.3, -0.33
CN(C)CCCCOc1ccccc1F
  0.76, -0.33
Cc1ccc(Cc2nnc(SCC(=O)Nc3c(C)cccc3C)[nH]c2=O)cc1
  1, -0.54
O=C(/C=C/c1c(F)cccc1Cl)Nc1cccnc1
  0.21, 0.83
C=CCN=c1scc(-c2ccc(F)cc2)n1/N=C/c1ccccn1
  0.86, 1.2
Cc1nc(NC(=O)c2ccc(Br)s2)sc1C(=O)N(C)C
  1.3, 0.37
COc1cc(C(=O)OCC(=O)NCCC2=CCCCC2)ccc1OCC(C)C
  0.23, -0.9
CC(=O)NC1CC2CCCC(C1)N2Cc1ccc(C)cc1 (centres undefined)
  0.84, 0.05
O=C(NCc1cccnc1)c1noc2c1CCCC2
  1.2, 1.9
Cc1cc(N2CCOCC2)nc(N)n1
  0.44, 0.34
CCC(C)(C)NC(=O)c1cc([N+](=O)[O-])ccc1N1CCOCC1
  1.2, -0.75
COC(=O)c1ccccc1OCCOCCOc1cccc2cccnc12
  0.76, -0.19
Cc1ccccc1NC(=O)Nc1cc(S(N)(=O)=O)ccc1C
  0.89, -0.05
Cc1cccc(OCC(=O)Nc2nnc(S(=O)(=O)N3CCC(C)CC3)s2)c1
  0.09, 0.02
CCC1CCCCN1C(=O)CCNC(=O)Cn1cnc2ccccc2c1=O (centres undefined)
  0.02, -0.88
Cc1ccc(NC(=O)NCCCl)cc1S(=O)(=O)N1CCOCC1
  0.68, -0.08
Cc1nc2cc(S(=O)(=O)C(F)(F)F)ccc2s1
  1.7, -0.74
CCc1nc(N[C@H](C(=O)O)C(C)CC)c2oc3ccccc3c2n1 (some centres undefined)
  1.5, 0.31
Cc1ccc2nc(Cl)c(/C=N/Nc3ccc(C(=O)O)cc3)cc2c1
  0.77, -0.45
O=C(/C=C/c1ccccc1)N1CCN(c2ccccn2)CC1
  0.18, 0.58
Nc1c(C(=O)NCc2ccc(F)cc2)c2nc3ccccc3nc2n1CCCN1CCOCC1
  0.81, -0.28
Cc1onc(-c2ccccc2)c1C(=O)N/N=C/c1cc(Br)c(O)c(Br)c1
  0.37, -1.6
CCOC(=O)C1CCN(C(=O)C2CC(=O)N(c3ccc4c(c3)OCCO4)C2)CC1 (centres undefined)
  0.13, 1.5
FC(F)(F)c1ccc2c(c1)n(Cc1ccccc1)c1[n+]2CCCCC1
  1.8, -0.06
Cc1ccc(S(=O)(=O)N(C)Cc2ccc(C(=O)N/N=C3\CCCC(=O)C3)cc2)cc1
  0.01, 0.06
C/C(=N\NC(=O)C1CCCN(S(=O)(=O)c2ccccc2)C1)c1ccccn1 (centres undefined)
  0.89, 0.62
COc1cccc(CN2CCC(C(=O)N3CCC(C)CC3)CC2)c1
  1, -0.73
Cc1oc(-c2cccs2)nc1CN1CCN(Cc2ccc(F)c(F)c2)C(CCO)C1 (centres undefined)
  1.4, -0.07
CCCn1c2ccccc2c2nnc(SCc3[nH]c(=O)[nH]c3C(=O)CCCCC(=O)OCC)nc21
  1.4, 0.56
O=C(NC1CCN(c2ncccn2)CC1)c1ccccc1F
  0.78, 0.17
CN(C1=NC(=O)C(CC(=O)Nc2ccc(Br)cc2)S1)c1ccc(O)cc1 (centres undefined)
  0.42, -0.21
COc1ccc(NC(=O)COC(=O)C23CC4CC(CC(Cl)(C4)C2)C3)c(OC)c1
  0.03, 0.17
CCOC(=O)c1[nH]c2ccc(OC)cc2c1NC(=O)c1ccc2c(c1)OCO2
  2.5, -0.9

# The results go on.
# Under each structure: KCNQ2 pot, KCNQ2 pot baseline
CCc1cccc(NC(=O)C2CC2c2ccccc2)c1 (centres undefined)
  4, -1
COc1ccc(-c2noc(CCCC(=O)NCC3CCCO3)n2)cc1 (centres undefined)
  1.4, -0.25
Cc1nn(C(=O)c2nn(C)cc2Cl)c(C)c1Br
  0.31, -0.06
Cc1ccccc1C(=O)Nc1nnc(CC(=O)N/N=C/c2ccncc2)s1
  0.38, -1.6
CC(=O)Nc1ccc(NC(=O)C(C)c2cccc(C(=O)c3ccccc3)c2)cc1 (centres undefined)
  0.37, -1

# Whole records, quoted from the list. Order of screens: KCNQ2 pot, KCNQ2 pot baseline
# Results for CCc1cccc(NC(=O)C2CC2c2ccccc2)c1 (centres undefined) → 4, -1
# Results for CC(=O)Nc1ccc(NC(=O)C(C)c2cccc(C(=O)c3ccccc3)c2)cc1 (centres undefined) → 0.37, -1
